Screens from PubChem.
2A Renilla = Primary qHTS Assay for Foot and Mouth Disease Virus Antivirals against NCGC Sytravon and CBC Compound Libraries: Renilla Luciferase Signal. AID 1745857, 2022. HEK cells with a luciferase reporter of 2A StopGo recoding. actives 0.32% (n = 120,000). Potency, µM (top dose mostly 57.5 µM), inactives show top-dose signal change, negative = less light; active means well fitted falling curve with a large enough effect; inconclusive means small, poorly fitted or top-dose-only effect; inactive means no such curve, though single readings can be large or run the other way; note: nearly all actives have a fitted effect of over 55% in size; overnight with compound
StopGo FLuc = Primary qHTS Assay for Foot and Mouth Disease Virus Antivirals against NCGC Sytravon and CBC Compound Libraries: Firefly Luciferase Signal. HEK cells with a luciferase reporter of 2A StopGo recoding. Potency, µM (doses to about 57.5 µM), inactives show at the highest dose signal change, negative = less light. actives 0.23% (n = 120,000); active = well fitted falling curve with a large enough effect; inconclusive = small, poorly fitted or top-dose-only effect; inactive = no such curve, though single readings can be large or run the other way; note: nearly all actives have a fitted effect of over 60% in size; overnight with compound
Starred values were filed as active, the others as inactive; ? = inconclusive; [ ] = remark or other dose. % is set by controls: 0 for no effect and ±100 for the full control effect; potency is the fitted concentration of half-maximal effect. A portion of the library; rates above refer to the full screens.

Structure,StopGo FLuc,2A Renilla
O=C(Nc1ccc2oc(-c3cccnc3)nc2c1)c1ccc(-c2cccc(OC(F)(F)F)c2)o1,-25%,-30%
CC(C)NC(=O)Nc1ccc(CN)cc1,8%,-3%
COCCn1c(Cc2ccccc2)nnc1SCc1cc2ccccc2nc1Cl,-10%,75%[activator]
O=S(=O)(c1ccc(-c2cc(C(F)(F)F)on2)s1)N1CCN(c2ccccc2)CC1,-2%,-1%
CC(NC(=O)c1ccco1)C(=O)N1CCC(c2c[nH]c3ccccc23)CC1 (configuration not stated),2%,-3%
CSc1ncc(Cl)c(C(=O)N(Cc2ccc(N(C)C)cc2)Cc2ccco2)n1,-22%,6%
CCCCCCC#CC#Cc1cccc(C(=O)O)c1,58%[activator],-1%
Cc1cccc(Oc2coc3cc(OCC(=O)OCCC(C)C)ccc3c2=O)c1,-9%,-8%
CCSc1ncnc2c1sc1nc(-c3ccco3)c3c(c12)CC(C)(C)OC3,-12%,-5%
CCCSc1ccc2nc(NC(=O)OC)[nH]c2c1,94%[activator],32%[activator]
Cc1cccc(N2CCN(C(C(=O)O)c3cn(C)c4cc(C(=O)O)ccc34)CC2)c1C (configuration not stated),-4%,-8%
O=C(Nc1nc2ccccc2n1CCOc1ccccc1)c1ccco1,46%[activator],0%
Cc1ccc(Cl)cc1N1C(=O)N(CC(=O)N2CCCCCC2)c2ccccc2S1(=O)=O,-2%,18%
N#Cc1ccccc1-c1ccc(CN2CCCC2)cc1,15%,-8%[1.06 µM]
CCOC(=O)N1CCN(C(=O)CN(c2ccccc2F)S(=O)(=O)c2ccc(C)cc2)CC1,-16%,2%
CC(C)C(=O)c1cc2c(cc1NC(=O)c1ccccc1F)OCCO2,-3%,40%[activator]
COc1ccc(C(=O)Oc2ccc(C(C)C)cc2)cc1Cl,17%,4%
CCn1nc(C(=O)Nc2ccc(OCC(=O)N(C)C)cc2)c2ccccc2c1=O,54%[activator],40%[activator]
CCOc1cc(/C=C(\C#N)c2nc3ccccc3[nH]2)ccc1OC(C)CC (configuration not stated),0%,-11%
CCc1ccc2oc(-c3ccc(C)c(N)c3)nc2c1,0%,-2%
Cc1cc(C(=O)Nc2ccccc2)c2ccccc2n1,10%,0%
CCc1ccc(CNC(=O)c2cc(SC)ccc2C)s1,10%,16%
Cc1ccc(C)c(CN2C(=O)c3ccccc3S(=O)(=O)c3ccc(C(=O)N(C)C4CCCCC4)cc32)c1,0%,275%[activator]
COc1ccc(-n2nc(C(=O)N(C)c3cc(Cl)ccc3OC)c3c4ccccc4n(C)c3c2=O)cc1,-15%,2%
Cc1ccc2oc(C(=O)Nc3cccc4cccnc34)c(C)c2c1,37%,18%
CSCC[C@H](NC(=O)Cc1ccc(N2CCCC2=O)cc1)c1nc2ccccc2[nH]1,0%,20%
CN(C)c1ccc(C(CNS(=O)(=O)c2ccc(F)cc2F)N2CCOCC2)cc1 (configuration not stated),-3%,-9%
COc1cccc(-n2cnc3sc4c(c3c2=O)CCC4)c1,35%[activator],10%
Cc1ccc(C)c(NC(=O)CCNC(=O)C2CCCC2)c1,-3%,-5%
Cc1ccc(OCn2ccc(C(=O)N3CCN(Cc4ccccc4F)CC3)n2)c(C)c1,-17%,-21%

For convenience, some entries already given.
Structure,StopGo FLuc,2A Renilla
CSc1ncc(Cl)c(C(=O)N(Cc2ccc(N(C)C)cc2)Cc2ccco2)n1,-22%,6%
CCCCCCC#CC#Cc1cccc(C(=O)O)c1,58%[activator],-1%
Cc1cccc(Oc2coc3cc(OCC(=O)OCCC(C)C)ccc3c2=O)c1,-9%,-8%
CCSc1ncnc2c1sc1nc(-c3ccco3)c3c(c12)CC(C)(C)OC3,-12%,-5%
CCCSc1ccc2nc(NC(=O)OC)[nH]c2c1,94%[activator],32%[activator]
Cc1cccc(N2CCN(C(C(=O)O)c3cn(C)c4cc(C(=O)O)ccc34)CC2)c1C (configuration not stated),-4%,-8%
O=C(Nc1nc2ccccc2n1CCOc1ccccc1)c1ccco1,46%[activator],0%
Cc1ccc(Cl)cc1N1C(=O)N(CC(=O)N2CCCCCC2)c2ccccc2S1(=O)=O,-2%,18%
N#Cc1ccccc1-c1ccc(CN2CCCC2)cc1,15%,-8%[1.06 µM]
CCOC(=O)N1CCN(C(=O)CN(c2ccccc2F)S(=O)(=O)c2ccc(C)cc2)CC1,-16%,2%
CC(C)C(=O)c1cc2c(cc1NC(=O)c1ccccc1F)OCCO2,-3%,40%[activator]
COc1ccc(C(=O)Oc2ccc(C(C)C)cc2)cc1Cl,17%,4%
CCn1nc(C(=O)Nc2ccc(OCC(=O)N(C)C)cc2)c2ccccc2c1=O,54%[activator],40%[activator]
CCOc1cc(/C=C(\C#N)c2nc3ccccc3[nH]2)ccc1OC(C)CC (configuration not stated),0%,-11%
CCc1ccc2oc(-c3ccc(C)c(N)c3)nc2c1,0%,-2%
Cc1cc(C(=O)Nc2ccccc2)c2ccccc2n1,10%,0%
CCc1ccc(CNC(=O)c2cc(SC)ccc2C)s1,10%,16%
Cc1ccc(C)c(CN2C(=O)c3ccccc3S(=O)(=O)c3ccc(C(=O)N(C)C4CCCCC4)cc32)c1,0%,275%[activator]
COc1ccc(-n2nc(C(=O)N(C)c3cc(Cl)ccc3OC)c3c4ccccc4n(C)c3c2=O)cc1,-15%,2%
Cc1ccc2oc(C(=O)Nc3cccc4cccnc34)c(C)c2c1,37%,18%
CSCC[C@H](NC(=O)Cc1ccc(N2CCCC2=O)cc1)c1nc2ccccc2[nH]1,0%,20%
CN(C)c1ccc(C(CNS(=O)(=O)c2ccc(F)cc2F)N2CCOCC2)cc1 (configuration not stated),-3%,-9%
COc1cccc(-n2cnc3sc4c(c3c2=O)CCC4)c1,35%[activator],10%
Cc1ccc(C)c(NC(=O)CCNC(=O)C2CCCC2)c1,-3%,-5%
Cc1ccc(OCn2ccc(C(=O)N3CCN(Cc4ccccc4F)CC3)n2)c(C)c1,-17%,-21%

Next records follow:
Structure,StopGo FLuc,2A Renilla
Cc1cc(C)c(NC(=O)CN(C)C(=O)c2cc3ccccc3oc2=O)c(C)c1,-6%,-8%
CC(C)CN(CC(C)C)c1nnc(NC(=O)Nc2cccc(C(F)(F)F)c2)s1,20%,5%
O=C(NC1CCCC1)c1cc2cc([N+](=O)[O-])ccc2oc1=O,3%,1%
CCc1ccc(-c2nn(-c3ccc(OC)cc3)c3c2cnc2ccc(OC)cc23)cc1,-8%,0%
CC(C)COCCCN,-10%,-5%
Cc1ccc(Nc2nnc(SCc3nnc(C(C)(C)C)o3)s2)cc1,10%,-7%
CCCCn1c(=O)n(C(C)C(=O)Nc2ccc3c(c2)CCC3)c(=O)c2c1ncn2Cc1ccco1 (configuration not stated),-3%,17%
Clc1ccc(Cl)c(-c2nn3c(CN4CCCCC4)nnc3s2)c1,2%,-6%
CCOc1ccc(CCNC(=O)C2CCCN(c3nnc(C)c4c(C)n(-c5ccccc5)nc34)C2)cc1 (configuration not stated),-1%,41%[activator]
Cn1c(Cl)nc2c1c(=O)n(Cc1cccc(Cl)c1)c(=O)n2C,-4%,-3%
COc1ccccc1N1CCN(c2nc3ccccc3nc2C(C#N)C(=O)OC(C)C)CC1 (configuration not stated),5%,1%
O=[N+]([O-])/C(=C(\Sc1ccc(Cl)cc1)c1ccccc1)c1ccccc1,-28%,?
NS(=O)(=O)c1ccc(N/N=C/c2ccc(Br)cc2)c([N+](=O)[O-])c1,0%,-5%
CCc1cccc(C)c1NC(=O)Cn1cc2c(n1)CCCC2,-21%,-30%
COC(=O)CC(NC(=O)Cc1ccc(Cl)c(Cl)c1)c1cccs1 (configuration not stated),6%,71%[activator]
O=C(Nc1cccc(C(F)(F)F)c1)C1=CCN(Cc2ccc(F)cc2)CC1,6%,-10%
CCc1ccc2c(CN3CCc4cc(S(N)(=O)=O)ccc43)cc(=O)oc2c1,0%,16%
COc1ccc(CCNS(=O)(=O)c2ccc(N3CCCCS3(=O)=O)cc2)cc1OC,-27%,-11%
Fc1ccc(C(c2nnc(-c3ccccc3)o2)N2CCN(c3cccc(Cl)c3)CC2)cc1 (configuration not stated),-1%,-2%
Cc1ccccc1C(=O)NCCc1sc(-c2ccc(Cl)cc2)nc1C,-11%,-18%
COc1ccc(-c2cc(C)no2)cc1S(=O)(=O)Nc1c(C)cc(C)cc1C,10%,220%[activator]
O=C(CSc1nc2ccccc2nc1N1CCCC1)N1CCN(C2CCCCC2)CC1,-1%,7%
Cn1cnc2c1c(=O)n(CCCSCc1ccc(Br)cc1)c(=O)n2C,-9%,-15%
CCCCN(CCCC)c1nc2c([nH]1)c(=O)[nH]c(=O)n2C,14%,2%
CCc1ccc(CNC(=O)Cn2nc(C)n3c(cc4cc(C)ccc43)c2=O)cc1,-11%,-4%
CCCc1nn2c(=O)cc(COC(=O)c3ccc(NC(=O)c4cccs4)cc3)nc2s1,?,-22%
CCOc1ccc(-c2nc(CSCC(=O)N3CCc4ccccc43)c(C)o2)cc1,?,-7%
COc1ccc(CCC(=O)NCCc2csc(-c3ccc(F)cc3)n2)cc1,3%,-5%
C[C@@H]1OCN(C)[C@H]2C[C@H]3c4[nH]c5cccc(-c6cccc(F)c6)c5c4CCN3C(=O)[C@@H]12,7%,6%
CC(=O)N1CCN(Cc2nnc(C(C)(C)C)o2)CC1,-8%,-10%
COc1cccc(C(=O)Nc2ccc3nc(SCC(=O)N4CCc5ccccc54)sc3c2)c1,64%[activator],-9%
CC(C)(CO)NC(=O)c1cc(-c2cccc3ccccc23)nc2ccccc12,-1%,79%[activator]
COc1cc(C2C(=O)N(C3CCCCC3)CC(=O)N2C2CCCCC2)ccc1OC(C)C (configuration not stated),-12%,-15%
CCOC(=O)c1c(NC(=O)CCCOc2ccc(Cl)cc2)sc2c1CCC2,-9%,-10%
Cc1ccc(C)c(-c2csc(-c3ccccc3)n2)c1,0%,5%
O=C(O)c1ccc(Nc2nc(-c3ccc(Cl)cc3)cs2)cc1O,116%[activator],2%
COc1cccc(-n2cc(C(=O)NCCc3cccc(C)c3)c3ccccc3c2=O)c1,18%,-11%
Clc1ccc(-c2nnc(CSc3nnc4ccccn34)o2)cc1,140%[activator],-7%
Cn1cc(C2c3ccccc3C(=O)N2CC(=O)NCc2ccccc2)c2ccccc21 (configuration not stated),-8%,88%[activator]
CCOCCCNCc1ccc(C)cc1,-2%,-2%
COc1ccc(N2CCN(S(=O)(=O)c3ccc4c(c3)C(C(C)C)C(=O)N4)CC2)cc1 (configuration not stated),?,?
CCCCSc1nc2c(c(=O)n(C)c(=O)n2C)n1Cc1ccc(Br)cc1,-5%,3%
CCC(=O)c1ccc(OC(=O)c2ccc(C)c(Br)c2)cc1,1%,6%
O=C(Cn1nc(-c2ccc(Cl)cc2)ccc1=O)NCCc1ccccc1,2%,-7%
COCCn1c(=O)c2c(nc(-n3nc(C)c(C)c3C)n2Cc2ccc(F)cc2)n(C)c1=O,-8%,1%
COc1ccc(N(Cc2nc3nc(C)cc(=O)n3[nH]2)C(=O)c2ccccc2F)cc1,1%,-2%
CCOC(=O)N1CCN(S(=O)(=O)c2cc(OCC)c(C)cc2OCC)CC1,-8%,-4%
Cc1ccc(C(=O)CC(C(=O)c2ccc(C)cc2)S(=O)(=O)c2ccc(C)cc2)cc1 (configuration not stated),33%[activator],1%
N#Cc1nc(-c2ccc([N+](=O)[O-])cc2)oc1N1CCCC1,9%,-5%
Cc1ccc(NS(=O)(=O)c2ccc(C)c(C(=O)N(C)C)c2)cc1,15%,170%[activator]

(list continues)
Structure,StopGo FLuc,2A Renilla
O=C(NC1CCCC1)c1cc(-c2ccccn2)nc2c(Cl)cccc12,8%,16%
COc1cc(C(=O)NCC(c2ccc(N(C)C)cc2)N2CCc3ccccc32)cc(OC)c1OC (configuration not stated),30%,-3%
COc1ccc(NC(=O)c2cc3cc(Br)ccc3oc2=O)cc1,0%,-2%
COc1cc(Cl)c(NC(=O)c2ccc3c(=O)n4c(nc3c2)CCCCCC4)cc1OC,-3%,-4%
CCCOC(=O)c1ccc(Oc2coc3cc(OC(=O)N4CCOCC4)ccc3c2=O)cc1,?,?
CCOC(=O)COc1ccc2c(=O)c(Oc3ccc(C(=O)OCC)cc3)c(C)oc2c1,10%,-1%
Cc1ccc(CNS(=O)(=O)c2cc3c(cc2C)N(C)CCO3)cc1,-1%,-13%
O=C(CCC1CCCC1)Nc1ccc2ccccc2c1,261%[activator],63%[activator]
CSc1nnc(-c2ccccc2NC(=O)c2cccc(S(=O)(=O)N3CCCCCC3)c2)o1,3%,4%
COc1ccccc1CCNC(=O)C(=O)NCC(c1cccs1)S(=O)(=O)c1cccs1 (configuration not stated),?,?
CCc1ccc(NC(=O)CN2C(=O)c3ccccc3Sc3ccc(C(=O)N4CCCC4)cc32)cc1,-5%,18%
N#Cc1ccc(CN2CCN(Cc3nnsc3Cl)CC2)cc1,2%,-7%
